# Screening data: PubChem, PCMD
# Calb biofilm kill – mixture kills Candida albicans biofilm cells; C. albicans biofilm persisters + clotrimazole, fluorescence viability; primary screen in compound mixtures of four per well; inhibition, % at 7.6 µM; actives 0.02% (n = 120,000); AID 1242;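 active = inhibition above 30.3% in the primary screen of four-compound pools, then above 30% when the compound was retested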;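 also: compounds exposed to preformed 24 h biofilms for 48 h; the number belongs to the whole pool; some results filed as inactive read as strong as hits; inactives centre near 12; 0% = biofilm with clotrimazole alone and 100% = kill control; retested singly at about 60 µM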
#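 Assay system: C. albicans biofilms / Medium: RPMI/MOPS medium, pH 7.0 / Schedule: biofilm formation 24 h, compound exposure 48 h, 37 °C / Measured by: Alamar Blue fluorescence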
# The depositor's hits bear a star.
SMILES,Calb biofilm kill
COC(=O)CC1COc2ccccc2N1C(=O)c1ccc(Br)cc1 (stereo unspecified),6
O=c1c2cnn(-c3ccc(F)cc3)c2ncn1Cc1ccccc1,8
C=CCNC(=O)C(=O)N/N=C/c1cccc(Br)c1,9
NC(=O)c1ccccc1OCC(=O)Nc1ccc(Cl)c(Cl)c1,6
COc1ccc(-c2csc(COC(=O)C(C)(C)C)n2)cc1,18
Nc1nc(NCCCN2CCOCC2)nc(Nc2cccc(F)c2)c1[N+](=O)[O-],-4
CC(/C=N/NC(=O)c1cc(-c2cccs2)[nH]n1)=C\c1ccccc1,13
Cc1ccc(N/N=C2\COC(C)(C)CC2=O)cc1,11
O=C(N/N=C/c1oc(O)c2ccccc12)c1ccccc1O,14
Fc1ccc(CNC(=S)NCc2ccc(F)cc2)cc1,14
Cc1ccc(SCC(=O)NC(=O)Nc2ccc3c(c2)OCCO3)c(C)c1,9
NS(=O)(=O)c1ccc(NC(=O)/C=C/c2cccs2)cc1,19
COc1ccc(-n2c(SCc3cn4c(C)cccc4n3)nc3ccccc3c2=O)cc1OC,20
COc1ccc(C(CCNCc2ccc(F)cc2)c2ccc(F)cc2)cc1 (stereo unspecified),15
COc1ccc(C2SCCN2C(=S)Nc2cccc(Cl)c2)cc1 (stereo unspecified),19
CCCc1c(C(=O)NNc2ccc(C)cc2)cnn1-c1ccccc1,10
Cc1cc(O)cc(O[C@H]2OC(CO)[C@H](O)[C@@H](O)[C@H]2O)c1 (stereo partly specified),19
COc1ccc(C2(C)NC(=O)N(CC(=O)Nc3ccc(-c4nc5ccc(C)cc5s4)cc3)C2=O)cc1 (stereo unspecified),6
CC(=O)c1ccc(NC(=O)c2ccc(CNc3c(N4CCCC4)c(=O)c3=O)cc2)cc1,17
COc1cc(NC(=S)NC(=O)c2ccccc2F)ccc1NC(=O)c1ccco1,-8
Cc1cccnc1CN1CCN(Cc2nc(Cc3cccc(F)c3)no2)CC1,14
COCCCN1C(=O)/C(=C\c2ccc3c(c2)OCO3)C(C(=O)OC)=C1C,-6
C/C(=N/NC(=O)c1ccc2c(c1)OCO2)c1ccc(Br)s1,-2
O=C1CCCN=C(Nc2ccc(F)c(Cl)c2)S1,-1
CCOc1ccccc1N(CC(=O)NCCSc1ccccc1)S(C)(=O)=O,0
CC(=O)Nc1ccccc1C(=O)C(=O)Nc1cccc(C(=O)NC2CC2)c1,8
Cc1cccc(C(C)C)c1NC(=O)CN(C)Cc1cccc(F)c1,15
O=C(COC(=O)c1ccc(CNS(=O)(=O)c2ccc(F)c(Cl)c2)cc1)NC1CCCCCCC1,21
COc1cc(NC(=O)c2cccs2)c(OC)cc1NC(=O)c1ccco1,19
COC(=O)c1ccccc1NC(=O)c1cn(-c2ccc(C)c(C)c2)c(=O)c2ccccc12,13
O=C(Nc1ccccc1)Nc1nnc(-c2cccs2)s1,16
Nc1ccc(C(=O)O)cc1S(=O)(=O)O,8
CC(=O)NC(C(=O)OCC(=O)N(c1ccccc1)c1ccccc1)C(C)C (stereo unspecified),26
Cc1cc(C)c2c(n1)sc1c(=O)n(CC(=O)c3ccccc3)cnc12,11
CCCNC(=O)Nc1cccc(C(=O)OC)c1,1
COc1ccc(C(C)=O)cc1COC(=O)CNC(=O)c1ccccc1F,17
COc1ccc(NC(=O)c2ccc(-c3nn(C)c(=O)c4ccccc34)cc2)cc1,21
Cc1c(NS(C)(=O)=O)cccc1-c1nc2cccnc2s1,27
Cc1ccc(C2=Nc3ccccc3N(C(=O)c3ccccc3)C(C)C2)cc1 (stereo unspecified),5
CCOc1ccc(NS(=O)(=O)c2ccc(NC(=S)NC(C)=O)cc2)cc1,18
N/C(=N\OC(=O)N1CCOCC1)c1ccc(Cl)cc1,21
C=CCNC(=O)/C(=C/c1ccc(Br)cc1)NC(=O)c1ccccc1OC,4
Cc1sc2nc(C)n(/N=C/c3ccc(O)cc3O)c(=O)c2c1C,13
Cc1ccc(S(=O)(=O)N(C(=O)c2ccncc2)c2ccc3oc4c(c3c2)CCCC4)cc1[N+](=O)[O-],12
Cc1ncc([N+](=O)[O-])n1CC(=O)NC1CCCCC1,-10
O=C(NCc1ccccc1)c1ccc2nc(N3CCOCC3)sc2c1,26
O=C(N/N=C/c1ccncc1)C1CC1C(=O)N/N=C/c1ccncc1 (stereo unspecified),20
O=C(COC(=O)c1cccc(Cl)c1)NCCN1C(=O)CSC1=O,11
CC(C)(C)c1ccc(C(=O)Nc2ccccc2NC(=O)c2ccco2)cc1,14
Cc1ccc(OCC(=O)N2CCN(S(C)(=O)=O)CC2)cc1,16
CCCNC(=O)Cn1cnc([N+](=O)[O-])n1,3
Cc1ccc(C)c(SCC(=O)Nc2ccc(S(=O)(=O)Nc3ncccn3)cc2)c1,3
COc1cccc(N/N=C/c2cccc(Br)c2O)c1,17
CCc1cccc(CC)c1NC(=O)COC(=O)CC1c2ccccc2CCN1S(=O)(=O)c1ccc(F)cc1 (stereo unspecified),3
COC(=O)N/N=C/c1ccccc1,10
CC(C)(C)c1ccc(NC(=O)Nc2ccc3ccccc3n2)cc1,26
CCOC(=O)C1CCN(C(=O)COC(=O)c2ccc3c(c2)C(=O)N(c2ccc(OCC)cc2)C3=O)CC1,-5
CCn1cc(S(=O)(=O)CC(=O)N2CCc3ccccc32)c2ccccc21,3
CCOC(=O)C(=CN(CCc1ccccc1)CC(=O)OC)C(=O)OCC,12
C[C@]1(C(=O)O)Cc2oncc2C[C@@H]1C(=O)O,3

# The list goes on:
SMILES,Calb biofilm kill
Cc1ccc(NC(=O)NNC(=O)c2sccc2-n2cccc2)cc1,3
COCCCNc1ncnc2sc3c(c12)CCC(C)C3 (stereo unspecified),12
O=C1NC(=O)C2(COC(c3cccnc3)OC2)S1 (stereo unspecified),13
CC(=O)CSc1nnc2c3ccccc3nc(C(C)(C)C)n12,4
Cc1ccc(NC(=O)COC(=O)/C=C/c2c(C)nn(-c3ccc(F)cc3)c2Cl)cc1F,10
Nn1c(Cc2cccc3ccccc23)nnc1SCc1ccccc1,11
O=S(=O)(Oc1ccccc1N1CCCCC1)c1ccccc1,10
C/C(=N\NC(=O)c1nn(C)c(C)c1Br)c1ccc(NC(=O)c2ccoc2C)cc1,18
Cn1nc(NC(=O)CC(C)(C)CC(=O)O)c2ccccc21,8
CCOC(=O)C1CCCCN1Cc1ccccc1C(F)(F)F (stereo unspecified),10
Cc1cccc(C)c1Nc1nnc(SC(C)C(=O)Nc2c(C)n(C)n(-c3ccccc3)c2=O)s1 (stereo unspecified),8
COc1ccc(OC)c(NC(=O)CN(C)S(=O)(=O)c2ccc3nc(C)sc3c2)c1,15
O=C(N/N=C/c1ccc[nH]1)c1cccc([N+](=O)[O-])c1,-1
CC(=O)c1ccc(O)c(CSC2=NCCS2)c1,5
Cc1cccc(-n2c(SCN3C(=O)c4ccccc4C3=O)nc3ccccc3c2=O)c1,19
O=C1CC(N(O)c2ccccc2)C(=O)N1c1ccc(Cl)c(Cl)c1 (stereo unspecified),17
CCC(C)(C)n1nnnc1C(c1ccccn1)N1CCCCC1 (stereo unspecified),-5
CC(NC(=O)CCc1nnc(-c2ccccc2)o1)c1ccccc1 (stereo unspecified),8
CC(C)(O)C#Cc1ccc(C(=O)NCCC(=O)O)s1,5
OCCC1CN(Cc2ccc3nonc3c2)CCN1Cc1ccsc1 (stereo unspecified),7

# Seven of the compounds above, with bars between the fields:
canonical_smiles | Calb biofilm kill
Cc1cccc(C)c1Nc1nnc(SC(C)C(=O)Nc2c(C)n(C)n(-c3ccccc3)c2=O)s1 (stereo unspecified) | 8
CC(=O)CSc1nnc2c3ccccc3nc(C(C)(C)C)n12 | 4
O=C1NC(=O)C2(COC(c3cccnc3)OC2)S1 (stereo unspecified) | 13
CC(C)(O)C#Cc1ccc(C(=O)NCCC(=O)O)s1 | 5
CCC(C)(C)n1nnnc1C(c1ccccn1)N1CCCCC1 (stereo unspecified) | -5
O=C1CC(N(O)c2ccccc2)C(=O)N1c1ccc(Cl)c(Cl)c1 (stereo unspecified) | 17
COCCCNc1ncnc2sc3c(c12)CCC(C)C3 (stereo unspecified) | 12

# New compounds follow:
SMILES,Calb biofilm kill
Cc1ccc(C(=O)n2c(-c3ccccc3)cnc2SCC(=O)Nc2ccc(C)cc2C)cc1,15
CC(C)CCSc1nc2ccccc2[nH]1,12
CC(C)(C)c1nc(SCC(=O)c2ccccc2)c2ccccc2n1,5
CCc1nnc(N/N=C/c2ccccc2F)n1N,22
CCOc1ccc(N(CC(=O)Nc2cccc(C)c2C)S(=O)(=O)c2c(C)[nH]c(=O)[nH]c2=O)cc1,22
CCCn1c(N)c(C(=O)CSc2nc3ccccc3c(=O)n2-c2ccc(OC)cc2)c(=O)[nH]c1=O,16
COc1ccccc1NC(=O)Nc1ccc(C(=O)N2CCCCC2)cc1,19
O=C(/C=C/c1cccc([N+](=O)[O-])c1)NCCSCc1ccco1,14
CCOC(=O)C1(CCOc2ccccc2)CCN(Cc2cccn2-c2cccnc2)CC1,8
O=c1[nH]c(/C(Cl)=C/c2cc(Cl)ccc2O)nc2cc(Cl)ccc12,14
Cc1ccccc1-n1nc(C)c(N=O)c1N,16
COc1ccc(CNC(=O)CCCn2nc([N+](=O)[O-])cc2C)cc1,10
Cc1nonc1NC(=O)CSc1nc2c(C)cccc2cc1C#N,18
COc1cc(/C=C2/SC(=S)NC2=O)ccc1OS(=O)(=O)c1ccc(C)cc1,9
CCOC(=O)c1nn(-c2ccc(Cl)cc2Cl)c(=N)c(C#N)c1C,15
COc1ccc(CCNC(=O)Nc2ccccc2[N+](=O)[O-])cc1,24
Cc1csc2c(N3CCN(C(=S)Nc4ccc(F)cc4F)CC3)ncnc12,13
CCN(Cc1ccncc1)Cc1nc(-c2ccc(C(=O)OC)cc2)no1,12
Cc1cccc(C)c1NC(=O)COc1ccc2c(C)c(Cc3ccccc3)c(=O)oc2c1C,19
CNC(=S)NNC(=O)c1cccs1,23
CCOC(=O)C1CCCN(CCC(=O)Nc2cc(C)ccc2C)C1 (stereo unspecified),19
O=P(COCCOCCOCP(=O)(c1ccccc1)c1ccccc1)(c1ccccc1)c1ccccc1,25
N/N=C(\Cc1cscn1)c1ccc(O)cc1O,20
Cc1nn(Cc2ccc([N+](=O)[O-])cc2)c(=O)n1-c1cccc(Cl)c1,-13
O=C1CC(N(CCc2ccccc2)C(=S)Nc2ccccc2)C(=O)N1c1ccc(F)cc1 (stereo unspecified),34
COc1ccc(-c2cc(C(=O)Nc3ccc(S(=O)(=O)Nc4onc(C)c4C)cc3)c3ccccc3n2)cc1,8
CCNC(=O)COC(=O)CNC(=O)c1cc(Cl)cc([N+](=O)[O-])c1,11
CC(C)(C)c1csc(CS(=O)(=O)c2ccccn2)n1,3
COCCNC(=S)N1CCC(NC(=O)C23CC4CC(CC(C4)C2)C3)CC1,3
Cc1ccc(S(=O)(=O)N/N=C/c2c[nH]c3ccccc23)cc1,5
Cc1ccc(O)c(N=Cc2cccs2)c1,13
C[C@@H]1CN(Cc2nc(-c3cccs3)no2)C[C@H](C)O1,61

# 2 of the compounds above, with each value named:
C=CCNC(=O)/C(=C/c1ccc(Br)cc1)NC(=O)c1ccccc1OC
  Calb biofilm kill = 4
Cc1sc2nc(C)n(/N=C/c3ccc(O)cc3O)c(=O)c2c1C
  Calb biofilm kill = 13

# An excerpt. The share of hits here may be higher or lower than overall.
